# Screens from PubChem.
# TRPML1 blocker – blocks the human TRPML1 channel | Q9GZU1 | TRPML1-inducible cells, Ca2+ dye fluorescence, FDSS; active compounds read low; inhibition of EC80 agonist-evoked calcium signal | activity change, negative = inhibition, % (concentration not given with the values) | 390,000 compounds, 0.02% hits; in the data active means activity change below about -50%; inconclusive means about -30% to -50%; inactive means above about -30%;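 also: stimulus is agonist 54-4 at its EC80 concentration; % is scaled to controls: 0 for no effect and ±100 for the full control effect; the text of the record puts the active cut at -80%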
# Target sequence (Q9GZU1 whole entry, looked up): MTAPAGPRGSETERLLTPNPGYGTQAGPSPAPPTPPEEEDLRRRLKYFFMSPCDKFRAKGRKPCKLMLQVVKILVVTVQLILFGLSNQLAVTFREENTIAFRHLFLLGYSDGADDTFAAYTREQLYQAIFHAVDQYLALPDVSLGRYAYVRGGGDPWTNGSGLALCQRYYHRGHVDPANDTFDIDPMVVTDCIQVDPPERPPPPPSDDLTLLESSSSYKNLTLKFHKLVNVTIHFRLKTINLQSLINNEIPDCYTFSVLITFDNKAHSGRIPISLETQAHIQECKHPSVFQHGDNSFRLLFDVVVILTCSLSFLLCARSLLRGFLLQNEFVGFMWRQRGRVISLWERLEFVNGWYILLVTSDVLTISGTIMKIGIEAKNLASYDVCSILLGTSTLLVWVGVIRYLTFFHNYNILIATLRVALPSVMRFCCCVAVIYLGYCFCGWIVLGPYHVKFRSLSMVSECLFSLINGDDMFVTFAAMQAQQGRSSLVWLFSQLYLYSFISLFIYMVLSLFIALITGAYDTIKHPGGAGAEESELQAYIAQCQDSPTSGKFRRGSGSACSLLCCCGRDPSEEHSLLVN
#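 TRPML1-DL cells, Tet-induced overnight (~16 h, 37 °C) at 1,500 cells/well, were loaded with Ca8 no-wash dye plus quencher for 45-90 min at room temperature. Compounds were pinned during FDSS kinetic reading; agonist 54-4 at EC80 (4 uM final) then added.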
# Menin-MLL FL inh – menin-MLL binding inhibition, fluorescein peptide. Fluorescence polarization, fluorescein-MLL peptide displacement from menin. FP activity change, % at 61.4 µM. 290,000 tested, under 10 active; inconclusive = falling polarisation curve, or a change in total fluorescence; inactive = total fluorescence flat and polarisation flat or rising; no compound was filed as active; the % refers to the polarisation; negative = inhibition;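 also: % of control where 0% means no effect; inhibitors lower the polarisation; unlabelled MLL peptide was the positive control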
# Sfp PPTase inh – blocks B. subtilis Sfp PPTase activity; Q9F4F7; Biochemical Sfp PPTase activity, qHTS; Potency, µM, without a hit: max response, negative = inhibition, usual class: inhibitors; 310,000 compounds, 3.5% hits; AID 1490; active = well fitted inhibition curve with a large enough effect; inconclusive = small, poorly fitted or top-dose-only effect, or another doubt; inactive = no such curve, though single readings can be large or run the other way;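 also: the enzyme is Sfp with the accession as filed and its product quenches rhodamine fluorescence; potency is read from the fitted curve at half-maximal effect; 0% = enzyme reaction without inhibitor and -100% = no enzyme wells; top concentration of the series not given in the record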
#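 Step 1, compound plus 15 nM Sfp-PPTase, 15 min, room temperature. Step 2, add rhodamine-CoA (5 uM) and BHQ-2-YbbR (12.5 uM). Step 3, read 525/598 nm fluorescence at 0 and 30 min.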
# ClpP mod – qHTS Assay for Activators of ClpP | Potency, µM (doses to about 57.5 µM), for the others: top-dose activity change, negative = active | 340,000 compounds, 1.9% hits | purified B. subtilis ClpP, FRET peptide cleavage, 20 min | AID 651965, 2013 | ATP-dependent Clp protease proteolytic subunit (Bacillus subtilis (strain 168)), P80244; active = well fitted falling curve with a large enough effect; inconclusive = small, poorly fitted or top-dose-only effect; inactive = no such curve, though single readings can be large or run the other way; also: potency is read from the fitted curve at half-maximal effect; the source files actives as falling curves though it sought activators and does not explain the sign; nearly all actives have a fitted effect of over 65% in size; many hits overshoot -100%
# Target sequence (P80244 whole entry, looked up): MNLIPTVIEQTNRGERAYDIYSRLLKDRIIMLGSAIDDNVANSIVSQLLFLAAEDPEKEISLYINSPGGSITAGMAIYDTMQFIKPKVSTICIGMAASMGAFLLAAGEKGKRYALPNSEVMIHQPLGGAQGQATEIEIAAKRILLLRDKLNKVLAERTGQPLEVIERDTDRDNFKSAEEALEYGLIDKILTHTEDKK
#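 FRET quenching reversal measured ClpP activation: 10 microg/mL B. subtilis ClpP at pH 8 with the FRET-FV decapeptide, read at 430 nm after 320 nm excitation. The 20-min minus 0-min signal was scaled between DMSO/no-enzyme wells and ADEP (5.8 microM final).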
# TRPML1 ag – human mucolipin-1 channel agonism; TRPML1-expressing cells, Ca2+ dye fluorescence, FDSS; host cell line not named in the record; reference of the full effect not given here; activation, % (test concentration not listed); 410,000 compounds, 0.12% hits; AID 624414; in the data active = activation above about 50%; inconclusive = about 30% to 50%; inactive = below about 30%; also: 0% is about no effect; the text of the record puts the active cut at 80%
#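 TRPML1-DL cells, Tet-induced overnight (~16 h, 37 degrees C), loaded 45-90 min at room temperature with Ca8 no-wash calcium dye plus quencher. FDSS fluorescence: 10 s baseline, compound pin-transfer, 110 s agonist read, then EC80 54-4 (4uM final) and 110 s antagonist read.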
# TRPV1 PAM – human TRPV1 potentiation; potentiation, % at 8.33 µM; 320,000 compounds, 0.02% hits; Q8NER1; AID 540277; TRPV1-expressing cells, Fluo-8 calcium influx, capsaicin EC20 potentiation; host cell line not named in the record; control for the full effect not named in the record; active means potentiation above 80%; inconclusive means 30% to 80%; inactive means below 30%; also: 0% is about no effect
#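 Fluo-8 calcium influx in TRPV1-expressing cells, kinetic read (ex 480/em 520 nm). Compound added and read 3 min for agonist activity, followed by capsaicin at EC20 final and 2 min further read for enhancement.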
# PINK1 modulator – changes PINK1 expression | PINK1 immunofluorescence, high-content cytometry, 24 h | Potency, µM (titrated, usually from 76.6 µM), for inactives: at the top dose activation (PINK1 increase), actives largely listed as activators | 410,000 compounds, 0.2% hits | AID 624263; active = well fitted activation curve with a large enough effect; inconclusive = small, poorly fitted or top-dose-only effect; inactive = flat fitted curve, though single readings scatter; cell line not stated here;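 also: potency is read from the fitted curve at half-maximal effect; % of control where 0% means no effect; nearly all actives have a fitted effect of over 65% in size; a mitochondrial uncoupler was the plate control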
#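 Compound titrations (5 concentrations, 24 h) on a stable cell line; DMSO and CCCP controls. Endpoint: fixed-cell PINK1 immunofluorescence with mitochondrial, cell and nuclear markers, scanned by microplate cytometer.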
# Numbers without * were called inactive; ? = inconclusive; / = no result given; & = joins results of further samples; [ ] = remark or other dose.
SMILES,TRPML1 blocker,Menin-MLL FL inh,Sfp PPTase inh,ClpP mod,TRPML1 ag,TRPV1 PAM,PINK1 modulator
Cc1ccc(Cn2c(C(=O)O)c(CNCc3ccc(OC(C)C)cc3)c3ccc(C)cc32)cc1,-6,/,/,-17%,1.0,/,8.9%
Cc1c(C)c2cc(Cl)c(OCC(=O)N3CCN(c4ccc(F)cc4)CC3)cc2oc1=O,-8,/,11%,/,0.5,5,7.2%
Cc1cccc(CCn2c(=O)c3ccccc3n(CC(=O)Nc3ccccc3F)c2=O)c1,-4,/,/,-2.6%,0.6,/,4.8%
O=C(NCCc1csc2nc(-c3ccccc3F)nn12)C(=O)Nc1cc(F)ccc1F,-22,/,/,?,0.1,/,3.8%
CCOc1ccc(N2C(=O)c3n[nH]c(-c4cccs4)c3C2c2cccc(F)c2)cc1 (stereo not given),16,/,/,-12%,1.2,/,-1.4%
Cc1cccnc1Sc1c([N+](=O)[O-])ncn1C,-3,1.5,4%,1.4%,-1.0,-3,20%[38.3 µM]
CC1S/C(=C(\C#N)C(N)=O)N(c2ccc(F)cc2)C1=O (stereo not given),-3,1.3,-12%,-3.3%,1.2,10,2.0%
CC1(C)CC(=O)C(C=NCCc2ccc(S(N)(=O)=O)cc2)=C(O)C1,-11,0.3,-3%,-1.6%,0.3,1,1.2%
O=C1C(=Cc2ccco2)CCC1=Cc1ccco1,7,/,/,-1.7%,0.4,/,-0.4%
CCOc1ncccc1C(=O)N(C)CC(=O)Nc1ccccc1SC,-2,5.3,11%,-22%,0.4,5,3.8%
CCCCCCCCN1C(=O)[C@H](CC(=O)NCc2cccc3ccccc23)C[C@@]2(C(=O)OC)CCCCC=C12,/,/,/,-9.2%,0.8,/,0.4%
Cc1ccc(SC(=O)COc2ccc(C)c(C)c2)cc1,3,1.5,0%,1.9%,0.2,-7,-0.7%
O=C(NCc1ccc2c(c1)OCO2)C(=O)NCC1OCCN1S(=O)(=O)c1ccc(F)cc1 (stereo not given),-7,/,4%,-0.7%,1.0,-2,2.8%
CSc1ccc(/C=C(\C#N)C(=O)Nc2cccc(C)c2)cc1,-10,1.1,12%,0.9%,1.8,-9,?
CC(=O)c1cc2c(cc1NC(=O)CCc1ccccc1)OCO2,21,0.6,-1%,?,0.9,25,0.4%
Cc1ccccc1C(=O)Nc1ccc(NC(=O)c2cccs2)cc1,-1,/,/,0.4%,0.4,/,-1.3%
CCOC(=O)c1c(NC(=O)CSc2cn(CCNC(=O)c3ccc(OC)cc3)c3ccccc23)sc2c1CCC2,19,/,/,-15%,0.4,/,0.2%
CCCNC(=O)c1ccc(N2CCC3(CC2)CC(c2ccccc2)=NO3)c(NC(=O)c2cccc(OC)c2)c1,-13,14,13%,?,1.7,-6,-0.1%
O=C(Cn1c(=O)nc(-c2ccccc2)c2ccccc21)NCCCc1ccccc1,-12,/,/,-13%,-1.0,/,1.7%
Cn1c(=O)[nH]c(=O)c2c1nc(CN1CCN(c3cccc(Cl)c3)CC1)n2CCN1CCOCC1,-22,-1.7,10%,-0.5%,-0.2,25,3.0%
O=C(Cc1ccccc1)Nc1nnc(-c2ccccc2)o1,25,4.6,24%,-5.3%,-1.2,-9,0.3%
CCCCCOc1ccc(C(=O)Nc2ccc(S(=O)(=O)Nc3cc(C)on3)cc2)cc1,-15,-1.0,16%,/,0.7,-1,14%
C/C(=N\NC(=O)c1ccc(CN2CCOCC2)cc1)c1ccc([N+](=O)[O-])cc1,2,9.2,-8%,1.3%,1.8,-8,-0.3%
Cc1ccc(N=Nc2c(C)[nH]n(C(N)=S)c2=O)cc1,-24,-0.5,-16%,/,-0.4,-1,7.5%
CC(C)NC(=O)c1ccccc1N(Cc1ccccc1)S(C)(=O)=O,88,1.3,3%,2.0%,-0.6,-20,-0.5%
COCCCNC(=O)c1cn(CCOC)c(=O)c2c1c1ccccc1n2C,-7,0.1,8%,3.5%&4.1%,0.5,3,1.8%&0.7%
O=C(Nc1nc(-c2cccs2)c(-c2cccs2)s1)C1CCCC1,-2,3.7,5%,-17%,-0.1,-20,?
CCCOc1ccc(C(=O)NNC(=S)NC(C)=O)cc1,5,0.2,?,-3.0%,1.5,16,12%[38.3 µM]
CC(C)c1ccc(CNC(=O)c2ccc(N3CCCC3)c(NC(=O)NCc3ccc(F)cc3)c2)cc1,0,/,/,-7.4%,-0.1,/,-0.6%
CC(C1CC1)N(Cc1ccccc1)C(=O)NC(=O)c1ccccc1 (stereo not given),10,0.5,15%,/,0.7,2,0.1%
Cc1nc(-c2ccc(F)cc2)c(CC(=O)N2CCN(S(=O)(=O)c3cccc(Cl)c3)CC2)s1,-3,/,/,/,1.6,2,0.4%
Cc1ccc(S(=O)(=O)NCC2CCC(C(=O)NCCc3ccccc3)CC2)cc1 (stereo not given),-10,/,/,-0.6%,0.2,/,1.2%
CSc1ccc(C#N)cc1NC(=O)c1ccc(Cl)cc1,-7,1.1,12%,-15%,1.2,-28,14%
COc1ccc(/C(=N/Nc2ncnc3ccccc23)C(=O)O)cc1,-3,20,63µM*,/,0.1,-14,-0.2%
COc1cc(/C=N/NC(=O)CC2(C)OCCCO2)ccc1OCc1ccccc1,-1,5.2,11%,-3.5%,0.0,2,3.4%
CCOC(=O)c1c(NC(=S)Nc2cccnc2)sc(C)c1C,5,0.6,-40%,-1.6%,-1.3,-8,-0.8%
COc1cc(OC)c(OC)cc1CN1CCN(C(=O)CC(C)C)CC1,11,-0.3,9%,1.4%,0.0,8,-0.4%
COc1ccccc1NC(=O)c1nn(C)cc1Br,1,2.5,6%,1.1%,0.3,8,-1.8%
Cc1cc(C)c(O)c(-c2cc(C(=O)NCCc3ccc(S(N)(=O)=O)cc3)[nH]n2)c1,4,3.6,18%,/,0.6,25,3.3%
COC(=O)c1sccc1NC(=S)Nc1cccc(F)c1,-9,2.0,-4%,-1.7%,-0.4,-4,3.5%
CCn1c(-c2ccoc2C)n[nH]c1=S,0,-0.4,12%,0.4%,-0.4,-3,1.7%[38.3 µM]
O=C(C[N+]1(CC#Cc2ccccc2)CCCCC1)c1ccc(Cl)cc1,-27,6.5,13%,0.7%,0.1,4,?
CC1(C)CC(N=Cc2c(O)n(Cc3ccc4c(c3)OCO4)c(=O)c3ccccc23)CC(C)(C)N1,-13,-10,-20%,/,-0.2,1,-1.7%
COC(=O)c1ccccc1NC(=O)Cn1cnc2cc(C)c(C)cc21,-13,-0.8,-18%,-1.7%,-0.3,-9,-2.5%[38.3 µM]
COc1ccc(NC(=O)c2cc3c(CO)cnc(C)c3oc2=Nc2cccc(F)c2)c(OC)c1,34,3.3,22%,2.7%,2.8,-13,-2.1%
C=CCn1c(SCC(=O)NC23CC4CC(CC(C4)C2)C3)nc(O)cc1=O,-7,2.8,16%,1.0%,-0.1,1,2.2%
CC(Sc1nnc(N)s1)C(=O)Nc1ccc(N2CCOCC2)cc1 (stereo not given),-7,3.4,-2%,1.8%,-0.1,3,0.1%
CCCCNC(=O)N(O)C1N(/N=C/c2cccnc2)C(=S)SC1(C)C (stereo not given),4,0.2,-8%,/,-0.8,-5,0.0%
Cc1ccc(C2=[N+]([O-])C(C)N(O)C2(C)C)o1 (stereo not given),43,5.6,10%,-6.4%,-0.8,16,-0.9%
Cc1cc(S(=O)(=O)N2c3ccc(F)cc3CCC2C)ccc1-n1cnnn1 (stereo not given),72,-0.1,1%,/,2.1,-5,-1.8%

# Filtered by structure, those above with a nitro group on carbon
SMILES,TRPML1 blocker,Menin-MLL FL inh,Sfp PPTase inh,ClpP mod,TRPML1 ag,TRPV1 PAM,PINK1 modulator
Cc1cccnc1Sc1c([N+](=O)[O-])ncn1C,-3,1.5,4%,1.4%,-1.0,-3,20%[38.3 µM]
C/C(=N\NC(=O)c1ccc(CN2CCOCC2)cc1)c1ccc([N+](=O)[O-])cc1,2,9.2,-8%,1.3%,1.8,-8,-0.3%

# (further entries)
SMILES,TRPML1 blocker,Menin-MLL FL inh,Sfp PPTase inh,ClpP mod,TRPML1 ag,TRPV1 PAM,PINK1 modulator
Nc1ccnn1Cc1ccncc1,-15,-1.5,3%,-1.3%,-0.4,15,-0.8%
CCCCCN(C(=O)CCC(=O)OCC(=O)NCc1cccc(OC)c1)c1c(N)n(CCCC)c(=O)[nH]c1=O,-14,/,2%,1.2%,-0.3,7,-0.5%
O=C(NC1CCCCCC1)C1c2ccccc2C(=O)N1Cc1ccccc1Cl (stereo not given),24,/,/,2.0%,6.0,/,4.6%
COC(=O)CN1C2=NCCCN2c2ccccc21,4,4.3,-12%,-2.1%,-0.6,2,2.0%
COc1ccc(N2CCN(S(=O)(=O)c3cnc[nH]3)CC2)cc1,-19,2.6,-1%,/,-0.5,/,-1.4%
CCN(CC)C1CCN(C(=O)c2ccc(OC3CCN(Cc4ccccn4)CC3)cc2)C1 (stereo not given),9,-1.3,-11%,-4.3%,0.8,4,-0.6%
Cc1cc(C)cc(NC(=O)CSc2nc3[nH]ncc3c(=O)[nH]2)c1,-24,7.6,1%,1.8%,0.7,-5,2.5%
CC(=O)Nc1ccc(C(C)=NNC(=O)C2CCCC2)cc1,3,/,/,1.4%,-0.1,/,1.4%
COc1cc(C(=O)NCc2ccco2)cc(OC)c1OC,1,3.9,8%,-2.2%,-0.6,-13,0.5%
Cc1cccc(C)c1NC(=O)CNC(=O)CCCc1c[nH]c2ccccc12,-10,/,/,-4.1%,-0.5,10,5.6%
COc1ccc(C2OC(=O)CC2C(=O)NC2CCCCCC2)cc1OC (stereo not given),-5,1.8,18%,-1.8%,2.5,1,-0.6%[38.3 µM]
O=C(CCn1nnc2ccccc2c1=O)N[C@@H](Cc1c[nH]c2ccccc12)C(=O)O,9,5.8,16%,/,0.0,7,0.4%
CCCC1Cc2c(sc3nc(SC)nc(N)c23)CO1 (stereo not given),-3,-2.7,22%,-3.4%,-0.6,-5,-0.9%
CN(C(=O)CSc1n[nH]c(-c2cccs2)n1)C1CCS(=O)(=O)C1 (stereo not given),-18,/,/,0.4%,0.1,5,-0.5%
